Epigenetic reg = derepresses silenced GFP reporter in murine cells | murine LDR cells, GFP reporter derepression, 30 h | Potency, µM (top dose mostly 53.9 µM), for inactives: at the highest dose GFP activation, usual class: activators | hit rate 0.2% among 280,000; also: % of control where 0% means no effect; nearly all actives have a fitted effect of over 60% in size
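Readout is the number of GFP-expressing murine LDR cells, counted by cytometry following washing. Cells were treated with compound for 30 h at 37 C; the stably integrated CMV-GFP locus is normally silent.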
NPSR antagonist = antagonists of human neuropeptide S receptor cAMP signaling. CHO-NPSR cells, cAMP TR-FRET, antagonist mode. hit rate 1% among 220,000. Potency, µM (series often up to 38.3 µM), inactives show top-dose activity change, negative = inhibition, hits mostly inhibitors; also: % is scaled to controls: 0 for no effect and ±100 for the full control effect; nearly all actives have a fitted effect of over 50% in size; many of its hits are not listed in these tables
Target sequence (Q6W5P4 whole entry, looked up): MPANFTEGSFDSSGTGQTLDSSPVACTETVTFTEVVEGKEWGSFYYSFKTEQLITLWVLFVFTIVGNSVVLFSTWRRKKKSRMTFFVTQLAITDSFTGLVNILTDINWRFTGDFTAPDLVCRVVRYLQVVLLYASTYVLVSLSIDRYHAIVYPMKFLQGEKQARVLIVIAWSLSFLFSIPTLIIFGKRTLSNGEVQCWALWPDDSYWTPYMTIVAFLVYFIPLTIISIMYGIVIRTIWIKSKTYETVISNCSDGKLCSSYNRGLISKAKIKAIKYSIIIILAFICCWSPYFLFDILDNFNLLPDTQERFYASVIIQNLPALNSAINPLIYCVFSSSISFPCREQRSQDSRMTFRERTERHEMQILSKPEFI
Tau fluor counter = counter-screen for tau fibril formation inhibitors; tau K18 P301L (four-repeat tau fragment) Alexa594 fluorescence, heparin fibrillization; Potency, µM (titrated, usually from 57.7 µM), for the others: at the top dose activity change, negative = decrease; hit rate 0.93% among 280,000; also: % is scaled to controls: 0 for no effect and ±100 for the full control effect; nearly all actives have a fitted effect of over 55% in size
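Human K18 P301L tau (15 uM unlabeled plus 0.24 uM Alexa 594-labeled, final) in 100 mM sodium acetate pH 7 was mixed with compound and 20 uM heparin and incubated 6 hr at 37 C.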
GAA inhib = blocks human lysosomal alpha-glucosidase; P10253; purified human GAA, 4-MU-alpha-glucoside fluorescence; Potency, µM (top dose mostly 76.9 µM), for the others: at the highest dose activity change, negative = inhibition, actives largely listed as inhibitors; hit rate 0.005% among 200,000; AID 1466;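 also: plate controls were uninhibited enzyme wells for no effect and no-enzyme background for full effect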
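Read-out is 4-methylumbelliferone fluorescence (Ex 365/Em 440 nm) after NaOH/glycine stop at pH 10. Enzyme 4 nM, substrate 400 uM, pH 5.0 citrate buffer, 20 min room temperature; AC50 from Hill-equation concentration-response.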
aGlu spleen mod = inhibits or activates alpha-glucosidase in human spleen homogenate; P10253; human spleen homogenate, 4-MU-alpha-glucoside fluorescence; Potency, µM (series often up to 79.9 µM), for the others: at the highest dose activity change, negative = inhibition, usual class: inhibitors; hit rate 0.006% among 240,000; AID 2112;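 also: 0% = enzyme with vehicle and -100% = no enzyme basal signal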
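Enzyme source: human spleen homogenate, 1 ug/well. Buffer 50 mM citric acid/K phosphate pH 5.0, 0.01% Tween-20. 4-MU-alpha-glucoside 1 mM; 37 C x 40 min; NaOH/glycine stop; fluorescence.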
GLA spleen mod = inhibitors or activators of human alpha-galactosidase in spleen homogenate | hit rate 0.008% among 240,000 | human spleen homogenate, 4MU-alpha-Gal fluorescence, 40 min | P06280 | AID 2107 | Potency, µM (doses to about 80 µM), for the others: at the highest dose activity change, negative = inhibition, hits mostly inhibitors;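 also: 0% = enzyme with vehicle and -100% = no enzyme basal signal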
Target sequence (P06280 32-429 limits assumed): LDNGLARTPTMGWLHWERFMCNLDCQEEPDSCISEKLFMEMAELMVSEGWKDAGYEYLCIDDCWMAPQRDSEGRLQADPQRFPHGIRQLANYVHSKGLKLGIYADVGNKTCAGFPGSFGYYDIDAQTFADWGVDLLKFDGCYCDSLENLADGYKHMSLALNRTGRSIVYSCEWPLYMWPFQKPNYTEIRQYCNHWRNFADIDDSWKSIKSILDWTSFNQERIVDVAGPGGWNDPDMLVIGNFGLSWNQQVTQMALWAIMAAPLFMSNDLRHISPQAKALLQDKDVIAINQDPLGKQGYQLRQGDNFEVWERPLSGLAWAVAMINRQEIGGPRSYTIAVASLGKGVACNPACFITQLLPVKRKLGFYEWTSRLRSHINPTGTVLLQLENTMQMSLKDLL
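Human spleen homogenate (1 ug) as enzyme source, 4-methylumbelliferyl-alpha-D-galactopyranoside 1 mM final, citrate/phosphate pH 5.0 with 0.01% Tween-20. Compounds 40 min at 37C, NaOH/glycine stop; fluorescence Ex 365/Em 440, Hill-fit AC50.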
GAA glycogen mod = inhibitors or activators of human alpha-glucosidase glycogen cleavage. P10253. recombinant GAA, glycogen substrate, Amplex Red glucose oxidase fluorescence. Potency, µM (titrated, usually from 76.4 µM), without a hit: top-dose activity change, negative = inhibition, most hits filed as inhibitors. hit rate 0.38% among 300,000;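 also: 0% = full enzyme reaction and -100% = no-enzyme basal signal; the screen sought inhibitors and activators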
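Recombinant human enzyme (4 nM); glycogen substrate; 37 C, 40 min, pH 5.0. Readout: coupled glucose oxidase/Amplex Red fluorescence.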
* hit, by the source's call; ? = inconclusive; . = no result given; & = joins results of further samples; [ ] = another dose, or the depositor's remark. Calls follow the shape of the dose curve; as a rule, active = well fitted curve in the direction sought with a large enough effect; inconclusive = small, poorly fitted or top-dose-only effect, or another doubt; inactive = no such curve, though single readings can be large; an effect the other way counts as inactive or inconclusive. Potency is read from the fitted curve at half-maximal effect. Not all compounds are listed, so the mix of outcomes need not match the whole.

Values run as follows: Epigenetic reg, GLA spleen mod, GAA glycogen mod, GAA inhib, NPSR antagonist, aGlu spleen mod, Tau fluor counter
#1 CCOC(=O)C(=NC(C)CC)NNc1ccc(Br)cc1 (configuration not stated)
  -3.0%, 6%, ?, -5%, -5%, -2%, -29%
#2 CCOC(=O)c1ccc(S(=O)(=O)N2CCN(CCC#N)CC2)cc1
  0.0%, -4%, 2%, ?, 2%[46.1 µM], -5%, -6%
#3 O=C(Nc1cccc([N+](=O)[O-])c1)N1CCN(c2ccccc2)CC1
  7.4%, 7%, -1%, 12%, -12%, -6%, 10%
#4 COc1cc(Cn2cnnn2)ccc1O
  0.9%, 9%, -21%, -3%, 0%[46.1 µM], 0%, -2%
#5 N=C1/C(=C\c2ccc(-c3cccc(C(=O)O)c3)o2)C(=O)N=C2SC=C(c3ccccc3)N12
  8.2%, -4%, 3%, 0%[15.4 µM], 3%, -5%, -8%
#6 NCCCC[C@H](N[C@@H](CCc1ccccc1)C(=O)O)C(=O)N1CCC[C@H]1C(=O)O
  1.1%[16.9 µM], -1%[29.1 µM], 4%, ., ., 9%[29.1 µM], .
#7 COc1cc2ncnc(NCc3ccc(C)o3)c2cc1OC
  -0.8%[10.1 µM], -9%, 9%, 7%, 0%, 0%, 0%
#8 COc1ccccc1Oc1ncnc2sccc12
  -2.2%, 3%, 1%, -6%, 5%, ., 4%
#9 CCC1C(=O)N(C)CCc2ccccc21 (configuration not stated)
  -11%, 9%, -4%, -5%, 2%, 1%, 3%
#10 Cc1cc(Cl)ccc1C(=O)C1CCCN(C(=O)c2cc(C(C)C)no2)C1 (configuration not stated)
  0.0%, 1%, 2%, ?, 41%, 1%, -10%
#11 O=c1oc2ccc(Br)cc2cc1S(=O)(=O)c1ccc(F)cc1
  0.0%, -2%, -5%, 1%, 4%, -5%, -12%
#12 CCOc1cc(C(c2c(C)[nH][nH]c2=O)c2c(C)[nH][nH]c2=O)ccc1OS(=O)(=O)c1ccccc1
  0.0%, 10%, ?, -5%, -12%[46.1 µM], 0%, -23%
#13 COc1ccc2c(c1)OCC(Cc1ccc(OC)c(OC)c1)C2=O (configuration not stated)
  -1.3%, 2%, ., ., ., 0%, -24%
#14 CN(C)NC(=O)c1ccc([N+](=O)[O-])s1
  3.2%, -1%, -1%, 2%, -22%, 3%, -9%
#15 Fc1ccc(C(CCCn2nnc(-c3cccnc3)n2)c2ccc(F)cc2)cc1
  -1.8%, 4%, 0%, -17%, ?, -3%, -11%
#16 CCCC(C(=O)NCc1ccco1)N(C(=O)CNS(=O)(=O)c1ccccc1)c1ccc(OC)cc1 (configuration not stated)
  2.3%, -1%, 1%, 11%, 2%, 2%, 2%
#17 CCOC(=O)CC(NC(=O)c1cccs1)c1ccc(OCC)cc1 (configuration not stated)
  0.0%, 2%, 4%, -15%, -1%[46.1 µM], 5%, -5%
#18 O=C(O)c1sccc1Oc1ccc(F)cc1[N+](=O)[O-]
  0.1%, 2%, -20%, -3%, 1%[46.1 µM], -1%, -5%
#19 CCN(c1ccccc1)S(=O)(=O)c1ccc(C(=O)OC(C)C(=O)NCCC2=CCCCC2)cc1 (configuration not stated)
  -0.9%, -3%, 9%, -5%, -34%, -4%, -9%
#20 COc1ccccc1C(=O)NNC(=O)c1ccc(F)cc1
  -1.1%, -3%, 3%, ?, 10%, -10%, 0%
#21 CC(C)CNC(=O)c1ccc(Cl)c(NC(=O)COc2ccccc2)c1
  3.2%, 7%, -6%, 11%, -6%, -7%, -4%
#22 COc1ccc(NC(=O)c2ccccc2)cc1NS(=O)(=O)c1ccc(F)cc1
  2.3%, -6%, 3%, -11%, 4%, 1%, -11%
#23 CN1c2ccccc2N(C)C1(C)c1cccc2ccccc12
  0.0%, -1%, -8%, -7%, -9%, -1%, -28%
#24 Cc1ccc(CN2C(=O)CCC2C(=O)NCc2ccc(F)cc2)cc1 (configuration not stated)
  -0.3%, 6%, 4%, -1%, 1%[46.1 µM], 1%, -1%
#25 Cc1ccc(CNC(N)=S)cc1
  -1.4%, -5%, -4%, -4%, 0%[46.1 µM], -8%, -4%
#26 O=C(N1CCN(c2cccc(Cl)c2)CC1)C1(c2cccs2)CCOCC1
  1.0%, 3%, -11%, ?, -12%, -21%, -13%
#27 COC(=O)c1onc(C(=O)c2ccccc2)c1C(=O)OC
  -0.2%, 3%, -2%, -1%, 8%[46.1 µM], -8%, 6%
#28 CCc1ccccc1NC(=O)CSc1nc2ccccc2n1CC(=O)N1CCCC1
  0.1%, -3%, -4%, 0%, 25%[46.1 µM], 1%, -1%
#29 CNC(=O)Oc1ccc2c(c1)[C@]1(C)CCN(C)[C@@H]1N2C
  0.2%&-2.4%&1.1%, -3%&0%&2%, -9%, -9%[15.4 µM], 9%, -10%&2%&-1%, -5%&-6%&-5%
#30 CCOc1ncccc1C(=O)Nc1ccc(Cl)cc1
  -0.8%, 4%, 2%, -6%, -12%[46.1 µM], 0%, -13%

Excerpt, compounds 16–17
Values run as follows: Epigenetic reg, GLA spleen mod, GAA glycogen mod, GAA inhib, NPSR antagonist, aGlu spleen mod, Tau fluor counter
#16 CCCC(C(=O)NCc1ccco1)N(C(=O)CNS(=O)(=O)c1ccccc1)c1ccc(OC)cc1 (configuration not stated)
  2.3%, -1%, 1%, 11%, 2%, 2%, 2%
#17 CCOC(=O)CC(NC(=O)c1cccs1)c1ccc(OCC)cc1 (configuration not stated)
  0.0%, 2%, 4%, -15%, -1%[46.1 µM], 5%, -5%

Later entries
Values run as follows: Epigenetic reg, GLA spleen mod, GAA glycogen mod, GAA inhib, NPSR antagonist, aGlu spleen mod, Tau fluor counter
#31 COc1ccc(-n2nnnc2SCC(=O)Nc2nnc(C)s2)cc1OC
  -4.8%, -8%, 5%, ?, -19%[46.1 µM], -2%, 0%
#32 Cn1ncc(Br)c1C(=O)N/N=C/c1cccc(OC2CSC2)c1
  1.3%, 3%, 3%, -1%, -16%, 2%, 4%
#33 CCOC(=O)[C@H](CCc1ccccc1)N[C@@H](C)C(=O)N1CCC[C@H]1C(=O)O
  0.0%, 8%, -10%, -1%[15.4 µM], -49%, 2%, -9%&-7%
#34 O=C(CCS(=O)(=O)Cc1ccccc1)NCc1ccco1
  0.0%, 1%, 2%, 3%, 0%[46.1 µM], 2%, 8%
#35 Oc1cccnc1CCc1ccccc1
  0.0%, 2%, 10%, 1%, -20%, -17%, -7%
#36 COc1ccccc1CC(=O)Nc1ccccc1C(=O)O
  -1.4%, 0%, -4%, -13%, 3%[46.1 µM], -2%, -4%
#37 C[n+]1ccccc1N1CCN(c2ccccc2Cl)CC1
  -1.3%, 0%, -2%, 3%, 20%, 0%, 2%
#38 Cc1ccc(-n2ncc3c(=O)[nH]cnc32)c(C)c1
  -1.0%, 8%, -22%, -6%, -2%[46.1 µM], 4%, -4%
#39 CCC(=O)OC1CC(C)N(C(=O)c2ccccc2)c2ccc(C)cc21 (configuration not stated)
  2.8%, 4%, 1%, -1%, -15%[46.1 µM], 4%, -5%
#40 COCc1cc(=O)[nH]c(SCCS(=O)(=O)c2ccc(Cl)cc2Cl)n1
  3.2%, 9%, 4%, 3%, -39%, 5%, -1%
#41 CCOc1cc(N2CCOCC2)c(OCC)cc1NC(=O)c1ccc(S(C)(=O)=O)cc1
  1.1%, 10%, 4%, -1%, -6%, 8%, -16%
#42 CC(NC(=O)Nc1cccc(Cl)c1)C(c1cccs1)N1CCCC1 (configuration not stated)
  -4.0%, 1%, 1%, 2%, 20%, 2%, 1%
#43 O=C1OCc2cc(NC(=O)C34CC5CC(CC(C5)C3)C4)ccc21
  -0.9%, 1%, 2%, 0%, -16%[46.1 µM], -1%, -18%
#44 Cc1cc(=O)[nH]c2c1c(C)nn2C1CCCCC1
  0.0%, 2%, 1%, -5%, 1%[46.1 µM], 4%, 0%

Grouped by structure, those above with an aryl methoxy group.
Values run as follows: Epigenetic reg, GLA spleen mod, GAA glycogen mod, GAA inhib, NPSR antagonist, aGlu spleen mod, Tau fluor counter
#4 COc1cc(Cn2cnnn2)ccc1O
  0.9%, 9%, -21%, -3%, 0%[46.1 µM], 0%, -2%
#7 COc1cc2ncnc(NCc3ccc(C)o3)c2cc1OC
  -0.8%[10.1 µM], -9%, 9%, 7%, 0%, 0%, 0%
#8 COc1ccccc1Oc1ncnc2sccc12
  -2.2%, 3%, 1%, -6%, 5%, ., 4%
#13 COc1ccc2c(c1)OCC(Cc1ccc(OC)c(OC)c1)C2=O (configuration not stated)
  -1.3%, 2%, ., ., ., 0%, -24%
#16 CCCC(C(=O)NCc1ccco1)N(C(=O)CNS(=O)(=O)c1ccccc1)c1ccc(OC)cc1 (configuration not stated)
  2.3%, -1%, 1%, 11%, 2%, 2%, 2%
#20 COc1ccccc1C(=O)NNC(=O)c1ccc(F)cc1
  -1.1%, -3%, 3%, ?, 10%, -10%, 0%
#22 COc1ccc(NC(=O)c2ccccc2)cc1NS(=O)(=O)c1ccc(F)cc1
  2.3%, -6%, 3%, -11%, 4%, 1%, -11%
#31 COc1ccc(-n2nnnc2SCC(=O)Nc2nnc(C)s2)cc1OC
  -4.8%, -8%, 5%, ?, -19%[46.1 µM], -2%, 0%
#36 COc1ccccc1CC(=O)Nc1ccccc1C(=O)O
  -1.4%, 0%, -4%, -13%, 3%[46.1 µM], -2%, -4%

High-throughput results deposited in PubChem by National Center for Advancing Translational Sciences (NCATS).
